Assay outcomes: PubChem, several laboratories
Mtb hypoxia rep = PubChem AID 1159583 | 0.1% of 300,000 active | fluorescence inhibition, % (test concentration not listed) | M. tuberculosis hypoxia-regulated fluorescent reporter, fluorescence;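 active = 35 to 45% if threefold the growth effect, above 45% if 1.5-fold the growth effect; inactive = the rest, general growth blockers included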;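 also: wells of about 50 µL received 100 nL stock; 0% = vehicle wells and 100% = reference inhibitor wells; whole bacteria with a GFP reporter of the hypoxia response; strong numbers were not always called active; many hits fall short of the cut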
BJeLR viability = MLPCN primary cell-based screen for lethality selective to Ras in HRASV12 cells | inhibition, % (test concentration not listed) | BJeLR (HRASV12) viability, CellTiter-Glo ATP luminescence, 48 h; reference of the scale not given here | 0.17% of 300,000 active | AID 1554, 2009;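 active = replicate mean above 50%; inconclusive = above 50% but judged a plate artefact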;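 also: 50 nL library stock added to about 25 µL; numbers are from one replicate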
Sa RN4220 lethal = growth inhibition of S. aureus RN4220, primary screen, OD600; 16 h; inhibition, % (no concentration beside the values); 0.33% of 330,000 active; AID 1259311, 2017;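 active = z-score of -3 or lower and OD600 up to 0.18 on both plates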;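 also: plate controls were untreated cells for no effect and reference antibiotic for full effect; stock transfer was 100 nL into about 80 µL; one replicate is shown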
PrP 5UTR inh = inhibition of PrP 5' UTR reporter expression; cell-based PrP 5' UTR mRNA reporter, plate reader; inhibition, % (test concentration not listed); 0.35% of 340,000 active; AID 488862, 2010;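 active = every replicate at 50% or more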;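 also: 0 = median of the neutral control wells; tested in H4 reporter cells; numbers are from one replicate; inactives centre near -14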
Autofluor counter = counter-screen for toxin protease inhibitors: compound fluorescence; compound autofluorescence counterscreen, microsphere flow cytometry; stronger effect = higher value; 3.1% of 360,000 active; AID 624483; fluorescence intensity (test concentration not listed);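 active = at least 3 SD above the mean of all compounds, about 16000 in these data; inconclusive = too few beads counted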;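 also: 100 nL of 1 mM stock went into each well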
ugtP null kill = growth inhibition of ugtP-null S. aureus, primary screen, RN4220 ugtP deletion, OD600; 16 h; some inactives read as strong as hits; growth inhibition, % (concentration not given with the values); 0.54% of 330,000 active;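 active = z-score under -3 and OD600 up to 0.15 on both plates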;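 also: plate controls were untreated wells for no effect and antibiotic for full effect; wells of about 80 µL received 100 nL stock; the first replicate is given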
Mtb hypoxia rep growth = recorded beside Mtb hypoxia rep, whose call it bears; growth inhibition, %; measured here: M. tuberculosis growth (absorbance);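 0% = vehicle and 100% = reference antibiotic; read after six days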
Starred values were filed as active, the others as inactive; ? = inconclusive; . = not tested or not shown.

SMILES | Mtb hypoxia rep | Mtb hypoxia rep growth | BJeLR viability | Sa RN4220 lethal | PrP 5UTR inh | Autofluor counter | ugtP null kill
CC(C(O)c1ccccc1)N(C)C(=O)Cc1ccccc1 (centres undefined) | 19 | 8 | . | 5.8 | . | . | 1
CN(/N=C/c1cccnc1)C1=NS(=O)(=O)c2ccccc21 | . | . | -10 | . | 7 | 2369 | .
COc1ccc(OCC(=O)OCC(=O)c2ccc(OC)c(F)c2)cc1 | 17 | 3 | . | -1.6 | -25 | 6537 | 0
CCN(CC)c1nc2c(c(=O)n(C)c(=O)n2C)n1CC(=O)c1ccccc1 | 11 | 16 | -7 | 5.1 | -23 | . | 6
Cc1ccc(CN(C(=O)c2ccc([N+](=O)[O-])cc2)C2CCS(=O)(=O)C2)o1 (centres undefined) | 15 | 4 | -6 | 3.9 | -28 | 5701 | 3
Cc1cccc(N(CC(=O)NC2CCCC2)C(=O)c2csnn2)c1C | 5 | 3 | 0 | -3.8 | -15 | 3499 | 4
Oc1ccccc1N1CCN(c2nnnn2-c2ccccc2)CC1 | -12 | -12 | -23 | 3.0 | -20 | 4261 | 15
CCCCCOC(=O)C(C)Sc1n[nH]c(=O)[nH]c1=O (centres undefined) | -7 | -1 | 0 | 4.5 | -5 | 2240 | 10
COc1ccc(C=NNC(=S)Nc2cc(C(F)(F)F)ccc2Cl)cc1 | 14 | 3 | . | -0.1 | . | . | 9
O=C(OCCCc1cc2ccccc2c(=O)o1)c1ccc(F)cc1 | 7 | 9 | . | 4.6 | -5 | 3756 | -8

Structures above with nitrogen in an aromatic ring:
SMILES | Mtb hypoxia rep | Mtb hypoxia rep growth | BJeLR viability | Sa RN4220 lethal | PrP 5UTR inh | Autofluor counter | ugtP null kill
CN(/N=C/c1cccnc1)C1=NS(=O)(=O)c2ccccc21 | . | . | -10 | . | 7 | 2369 | .
CCN(CC)c1nc2c(c(=O)n(C)c(=O)n2C)n1CC(=O)c1ccccc1 | 11 | 16 | -7 | 5.1 | -23 | . | 6
Cc1cccc(N(CC(=O)NC2CCCC2)C(=O)c2csnn2)c1C | 5 | 3 | 0 | -3.8 | -15 | 3499 | 4
Oc1ccccc1N1CCN(c2nnnn2-c2ccccc2)CC1 | -12 | -12 | -23 | 3.0 | -20 | 4261 | 15
CCCCCOC(=O)C(C)Sc1n[nH]c(=O)[nH]c1=O (centres undefined) | -7 | -1 | 0 | 4.5 | -5 | 2240 | 10

Later entries:
SMILES | Mtb hypoxia rep | Mtb hypoxia rep growth | BJeLR viability | Sa RN4220 lethal | PrP 5UTR inh | Autofluor counter | ugtP null kill
CCCCn1c(N)c(N(CC(C)C)C(=O)c2cc(=O)[nH]c3ccccc23)c(=O)[nH]c1=O | 5 | -5 | 9 | 3.4 | 1 | ? | 11
O=C(Cn1[nH]c(=O)c2ccccc2c1=O)NC1CCN(Cc2ccccc2)CC1 | 6 | 7 | . | 4.0 | -24 | 23670* | -9
CC(=O)Nc1ccc(C(=O)Nc2cccc(-c3cnc4ccccc4n3)c2)cc1 | 1 | 11 | 7 | 4.4 | -19 | 4215 | 15
CC(C)CC1NC(=O)N(CC(=O)Nc2cccc(Br)c2)C1=O (centres undefined) | . | . | . | 3.0 | -20 | 2944 | 0
CC1CN(c2nnnn2-c2ccccc2)CC(C)O1 (centres undefined) | 13 | 7 | 4 | 4.3 | -6 | 3203 | 0
COc1cc2c(cc1OC)CN(C(=O)c1ccc(S(=O)(=O)N3CCCC3)cc1)CC2 | -10 | 7 | -9 | -4.7 | -24 | 4217 | -6
CCOCCCNC(=O)C(NC(=O)c1ccc2c(c1)OCO2)c1ccc(OC)cc1 (centres undefined) | -7 | -1 | 1 | 2.5 | -6 | 4320 | 3
CCOC(=O)C(Cc1c[nH]c2ccccc12)NC(=O)CNC(C)=O (centres undefined) | 3 | 14 | -5 | 0.7 | -12 | 6565 | -1
COC(=O)CC(NC(=O)c1ccc(C)cc1)c1ccc2c(c1)OCO2 (centres undefined) | -6 | 6 | -3 | -5.6 | -18 | 3552 | -4
CC(C)CC(=O)Nc1ccc(Cc2ccncc2)cc1 | -10 | -6 | -9 | -6.3 | -15 | 4199 | -6
O=C(c1ccc(Br)cc1)N1CCCC1 | 14 | 19 | -1 | -2.3 | -31 | 3604 | -5
CCN1CCN(C(=O)Cc2coc3ccc4ccccc4c23)CC1 | . | . | 6 | -2.2 | -6 | 3569 | 0
CCCCCC(=O)Nc1cc(S(=O)(=O)N2CCOCC2)ccc1N1CCCC1 | 4 | 5 | 1 | 4.1 | -12 | 5379 | 1
O=C(c1cc(C(=O)NCc2ccc(Cl)cc2)c(=O)n(Cc2ccc(Cl)cc2)c1)c1cc(F)ccc1O | 8 | 6 | -5 | -2.4 | -66 | 7875 | -35
CCOC(=O)CC1C(C(=O)OCC)ON2OC(C(=O)OC)C(C(=O)OCC)C12 (centres undefined) | -7 | 7 | 10 | 4.1 | -10 | 3602 | 3
COC(=O)[C@H](Cc1ccccc1)NC(=O)N(C)Cc1ccccc1 | 8 | 6 | -7 | 1.7 | -9 | 6547 | 5
N#Cc1ccc(CN2CCN(C(=O)c3cc(C4CC4)nn3-c3ccccc3)CC2)cc1 | -5 | 2 | . | 1.8 | -7 | 5832 | 6
COc1cc(NC(=O)CN2CCN(c3ccccc3O)CC2)c(C)cc1[N+](=O)[O-] | 7 | 8 | 4 | -3.3 | 3 | 2086 | 5
O=C(Nc1ccc(S(=O)(=O)N2CCCC2)cc1)C1CC(=O)N(c2ccccc2)C1 (centres undefined) | 20 | 1 | -1 | 6.7 | -34 | 4216 | 11
O=[N+]([O-])c1ccccc1/C=C/C=NNc1ccc(S(=O)(=O)Nc2ccc(Cl)cc2)cc1[N+](=O)[O-] | 8 | -3 | . | -9.6 | . | . | 1
Cc1c(/C=N/NC(=O)c2sc3ccccc3c2Cl)cnn1C | . | . | -1 | . | -13 | 3740 | .
Cc1nn(C)c(C(=O)Sc2ccccc2)c1[N+](=O)[O-] | 6 | 0 | -1 | -2.4 | -18 | . | 8
COc1ccc2[nH]c(=O)c(-c3nnn(-c4ccccc4)n3)cc2c1 | 9 | 9 | -5 | 11 | -22 | 3481 | -22
COC(=O)C(C)(N)Cc1ccc(O)cc1 (centres undefined) | 4 | -1 | . | 5.8 | -25 | 5875 | -1
CCOC(=O)c1[nH]nc(-c2cc(CC)c(O)cc2O)c1-c1cscn1 | 3 | 12 | -6 | 5.5 | -6 | 11167 | -1
Fc1ccc(NC(=S)NCc2cccs2)cc1 | 0 | -1 | -1 | -1.0 | -9 | 6943 | 1
COc1ccc(OCCNC(=O)Nc2cc(F)c(F)cc2Cl)cc1 | 9 | 5 | 3 | 14 | 0 | 4566 | -3
CC(C)Sc1ncnc2[nH]ncc12 | 3 | 2 | . | 3.5 | -1 | 3032 | 27
O=C(O)CCCCn1c(SCc2ccccc2Cl)nc2ccsc2c1=O | 0 | 10 | 0 | 13 | -10 | 4679 | 3
Cc1ccc(NCc2nnc(SCC(=O)c3ccc4c(c3)OCCO4)o2)c(C)c1 | 7 | 2 | 9 | 8.1 | -13 | 7929 | 17
CCN(CC)c1ccc(N=Cc2c(O)n(CCc3ccc(OC)c(OC)c3)c(=O)[nH]c2=O)cc1 | -10 | 8 | -2 | -0.7 | -31 | 2155 | -25
Cc1ccc(-c2noc(C3CCCN(C(=O)c4cccc(Cl)c4)C3)n2)o1 (centres undefined) | 1 | -2 | 1 | 3.8 | -16 | 2992 | -1
O=C(CCS(=O)(=O)c1ccccc1)Nc1nc2cc3c(cc2s1)OCO3 | 9 | 1 | -3 | 4.2 | -18 | 3324 | 4
COc1cc2c(cc1OC)CN(C(=O)C(C)(C)C)CC2 | -3 | 5 | -8 | 2.6 | 16 | 7771 | 6
C=CCN(c1ccccc1OC)S(=O)(=O)c1cccc(C(=O)OCC(=O)c2c[nH]c3ccccc23)c1 | 6 | 5 | 9 | -6.5 | 3 | 9495 | -19
COc1cc(/C=N/N2CCN(c3ccccc3OC)CC2)ccc1OC(C)=O | . | . | 0 | . | -31 | 3650 | .
CC[C@@H](C)[C@H](NC(=O)OC(C)(C)C)c1nnc(S(=O)(=O)Cc2cc(C)ccc2C)o1 | 2 | 11 | 2 | 12 | -21 | 3275 | 32
CCCNC(=O)c1ccc(SC)cc1OC | 20 | 5 | -8 | 2.8 | -21 | 3210 | 6
COc1ccc[nH]c1=O | -8 | 4 | -2 | 2.4 | -13 | 9415 | 0
CCOc1cc(C2C(C#N)=C(N)Oc3n[nH]c(-c4ccncc4)c32)cc([N+](=O)[O-])c1O (centres undefined) | 6 | 1 | -3 | 4.0 | -25 | 4400 | -1
CN(C)CCN1C(=O)C(O)=C(C(=O)c2cc3ccccc3o2)C1c1cccc(Br)c1 (centres undefined) | 13 | 3 | 0 | 1.7 | -56 | 22182* | -1
C=CCn1c(O)c(C(CC)=NCCC2=CCCCC2)c(=O)[nH]c1=O | 13 | 20 | -1 | 1.7 | -8 | 6006 | 0
CCCC(=O)N(CCN1CCOCC1)c1nc2c(OC)ccc(OC)c2s1 | -1 | 8 | -7 | 2.5 | 3 | 3931 | 3
CC(C)c1ccc(S(=O)(=O)N2CCN(CCC(=O)Nc3ccc(N(C)C)cc3)CC2)cc1 | . | . | 0 | 0.1 | -1 | 2393 | -2
CC12CCC=CC1=C(C=O)C1C2CCC2(C)C(O)CCC12 (centres undefined) | 3 | -2 | . | 6.7 | -17 | 3019 | 7
CCc1ccc(NC(=O)CNCc2ccc(OC)c(OC)c2)cc1 | -3 | 9 | 1 | 5.8 | -16 | 3868 | 9
Cc1cccc(-n2ccnc2SCC(=O)O)c1C | 0 | 7 | 12 | 6.3 | -19 | 4618 | 4
O=C(COc1ccccc1)OCc1cc(-c2ccco2)on1 | 1 | 2 | . | 7.0 | -9 | 2929 | 17
Cc1cc(F)ccc1S(=O)(=O)Nc1ccccc1C(=O)Nc1ccccc1N1CCOCC1 | . | . | 4 | 9.5 | 2 | 3482 | 12
CC(=O)c1ccc(NC(=O)Nc2sc(NS(=O)(=O)c3ccccc3)nc2C)cc1 | 10 | 13 | 10 | 6.2 | -3 | 4429 | -2

(listing goes on)
SMILES | Mtb hypoxia rep | Mtb hypoxia rep growth | BJeLR viability | Sa RN4220 lethal | PrP 5UTR inh | Autofluor counter | ugtP null kill
CCc1nc(N)nc(N)c1-c1ccc(Cl)cc1 | 0 | -2 | 62* | 5.7 | -4 | 5935 | 15
COCCn1nnnc1C1(N(Cc2cc3cc(C)ccc3[nH]c2=O)CC2CCCO2)CCN(C)CC1 (centres undefined) | . | . | . | 1.2 | -12 | 4030 | 3
Cc1nc2nc(C)c(CCC(=O)NC3CCCCC3)c(C)n2n1 | 3 | 2 | -1 | 6.2 | -14 | 2025 | -4
Cc1cc(C)n(CCO)c(=O)n1 | 3 | 3 | 5 | -0.3 | 0 | 20285* | -2
O=C(Cn1[nH]c(=O)c2ccccc2c1=O)NNC(=O)c1ccccc1 | 3 | -7 | 1 | 3.2 | -3 | 4874 | 9
O=C(CCC(=O)N1CCOc2ccccc21)Nc1cc(F)ccc1F | . | . | 3 | 2.9 | -17 | 6112 | 10
CNC(=O)c1[nH]nc2c1CCc1ccccc1-2 | -4 | 5 | 2 | -0.9 | -12 | 3512 | 1
COc1ccc(C(=O)CSc2nnc(-c3cc(C)on3)o2)cc1 | 3 | -9 | 11 | -1.7 | -10 | 2709 | -19
Cn1cc([C@@H]2C[C@H]3CN(C4CCCC4)C(=O)[C@]34CCCN24)c(-c2ccccc2)n1 | 11 | 7 | -3 | 0.6 | -24 | 3333 | 0
Cc1ccc2c(c1)C1CN(C)CCC1N2C(=O)COc1ccc(S(=O)(=O)N2CCOCC2)cc1 (centres undefined) | -5 | -3 | -5 | 2.3 | -18 | 9801 | -2
COc1cccc2c(=O)n(CC(=O)N3CCC(C)CC3)ccc12 | 0 | 7 | 1 | -5.4 | -14 | 6613 | -10
CCN(CC)C(=O)c1cn(CCC#N)nc1-c1ccc2ccccc2c1 | 8 | 13 | -1 | 3.4 | -31 | 4035 | 18
Cc1cccc(NC(=O)c2cnccn2)c1 | 6 | 0 | 11 | 3.2 | -20 | 3037 | 1
O=C(C1CCCN(S(=O)(=O)c2cccc3nsnc23)C1)N1CCN(c2ccccn2)CC1 (centres undefined) | -4 | 2 | 3 | 5.9 | -5 | 3557 | 12
C=CCN1C(=O)C2(NC(=O)c3ccccc3N2)c2ccccc21 (centres undefined) | -9 | 9 | -3 | -2.9 | -29 | 4397 | -4
